# From PubChem BioAssay
# rRNA inh HTS = selective bacterial rRNA inhibition in E. coli; E. coli WT GFP vs humanized-ribosome RFP mutants, fluorescence, 24 h; active compounds read low; DMSO median 0, no signal -100; GFP signal change (wild-type ribosome), % (concentration not given with the values); hit rate 1.6% among 350,000;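 active means significant combined selectivity score with lowered wild-type GFP, culture density cut under 30%, mutant RFP and density less affected; inactive means any of these conditions unmet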; further: one replicate is shown; some compounds called inactive have numbers as strong as hits
# rRNA inh HTS OD600 = second read-out of rRNA inh HTS, no call of its own (marks repeat the call); OD600 change, %; measured here: OD600 growth;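 optical density of the mix in the first replicate; 0 = DMSO median and -100 = no signal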
# rRNA inh HTS RFP = also measured in rRNA inh HTS; calls as there; RFP signal change, %; measured here: RFP humanized mutant strains;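 first replicate; 0 = DMSO median and -100 = no signal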
# An asterisk follows results filed as active. The list is partial; rates above refer to the full screens.
SMILES,rRNA inh HTS,rRNA inh HTS OD600,rRNA inh HTS RFP
C[C@@H]1CN([C@H](C)CO)C(=O)c2cc(NC(=O)Cc3cn(C)c4ccccc34)ccc2O[C@H]1CN(C)Cc1ccncc1,-1,-3,-0.5
C[C@H](CO)N1C[C@H](C)[C@H](CN(C)C)Oc2cc(C#CC(C)(C)O)ccc2S1(=O)=O,0,5,-2.6
CCc1nc2c(OCc3cccc(Cl)c3)cccn2c1N(C)C(=O)c1ccco1,-6,-34,-2.1
O=C(C1CCCC1)N1[C@H](CO)[C@@H](c2ccccc2)C12CN(CCC(F)(F)F)C2,-5,-2,2.7
O=C1NC[C@@H](CCCCN2CCN(CC3CCCCC3)C(=O)C2=O)N(CCC2CCCCC2)C1=O,-15,-30,-0.6
C[C@H]1CN([C@@H](C)CO)C(=O)c2cc(C#Cc3ccccc3)cnc2O[C@H]1CN(C)C(=O)c1ccccc1,1,9,0.1
CN1C(=O)c2cc(NC(=O)c3ccc(F)c(F)c3)ccc2OC[C@@H]2O[C@@H](CC(=O)N[C@@H]3CCN(Cc4ccccc4)C3)CC[C@H]21,0,2,10
CO[C@H]1CN(C)C(=O)c2cc(NC(=O)C3CCOCC3)ccc2OC[C@H](C)NC[C@@H]1C,2,8,-1.9
CCCCCNC(=O)C(c1ccnc2ccccc12)n1c(=O)c(-c2cc3ccccc3[nH]2)nc2ccccc21 (stereo unspecified),4,1,8.9
CCS(=O)(=O)N1CCC2(CC1)CN(Cc1ccc3c(c1)OCO3)[C@H](CO)c1[nH]c3cc(OC)ccc3c12,-3,1,1.3
CCC(=O)N(C)C[C@@H]1Oc2ncc(-c3ccc(C)cc3)cc2C(=O)N([C@@H](C)CO)C[C@H]1C,-4,-3,-1.2
CNC[C@H]1Oc2ccc(NC(=O)Nc3ccccc3)cc2C(=O)N([C@H](C)CO)C[C@H]1C,3,0,-1.4
O=C(NCc1ccccc1)c1cc(C2CCCN(C(=O)C3CC3)C2)on1 (stereo unspecified),8,10,2.0
C[C@H](CO)N1C[C@H](C)[C@@H](CN(C)C(=O)Nc2ccc3c(c2)OCO3)OCCCC[C@H](C)Oc2ccc(NC(=O)Nc3ccc4c(c3)OCO4)cc2C1=O,-3,0,-3.3
Cc1ccc2nc(-c3ccc(F)cc3)c(Cc3ccsc3)n2c1,7,6,1.7
CO[C@@H]1CN(C)C(=O)c2cc(NC(=O)C3CC3)ccc2OC[C@@H](C)N(C(=O)Nc2ccc(C(F)(F)F)cc2)C[C@H]1C,-25,-33,7.2
CC(C)NC(=O)N(C)C[C@H]1Oc2ccc(NC(=O)C3CC3)cc2CC(=O)N([C@H](C)CO)C[C@@H]1C,8,27,0.2
CCCC#Cc1cnc2c(c1)C(=O)N([C@H](C)CO)C[C@H](C)[C@H](CN(C)C(=O)Nc1ccccc1OC)O2,-1,-2,-2.3
C[C@H]1CN([C@@H](C)CO)C(=O)Cc2cc(NS(=O)(=O)c3cn(C)cn3)ccc2O[C@H]1CN(C)Cc1ccccc1,2,21,1.0
CCCC#Cc1ccc([C@H]2[C@H](CO)N3C(=O)CN(C(=O)c4cccnc4)C[C@@H]23)cc1,8,11,-2.9

# One compound at a time, from the list above. Order of screens: rRNA inh HTS	rRNA inh HTS OD600	rRNA inh HTS RFP
# C[C@H](CO)N1C[C@H](C)[C@H](CN(C)C)Oc2cc(C#CC(C)(C)O)ccc2S1(=O)=O is entered as 0	5	-2.6
# CC(C)NC(=O)N(C)C[C@H]1Oc2ccc(NC(=O)C3CC3)cc2CC(=O)N([C@H](C)CO)C[C@@H]1C is entered as 8	27	0.2

# The list goes on.
SMILES,rRNA inh HTS,rRNA inh HTS OD600,rRNA inh HTS RFP
COc1ccc2c3c([nH]c2c1)[C@@H](CO)N(Cc1ccc(F)cc1)CC31CN(C)C1,-2,-5,-0.7
O=C(C1CCC1)N1CC(=O)N2[C@@H](CO)[C@@H](c3ccc(C#CCc4ccccc4)cc3)[C@@H]2C1,4,5,-4.5
O=C(C[C@H]1CC[C@@H]2[C@H](COC[C@H](O)CN2Cc2cccc(C(F)(F)F)c2)O1)NCc1ccccc1,-3,-14,-4.5
C[C@@H]1CN([C@H](C)CO)C(=O)c2cccc(NC(=O)c3nc4ccccc4s3)c2O[C@@H]1CN(C)CC1CC1,-4,-5,4.3
C[C@H](CO)N1C[C@H](C)[C@H](CN(C)S(=O)(=O)c2ccc(Cl)cc2)Oc2ccc(NC(=O)C3CC3)cc2C1=O,2,1,-3.4
Cc1ccccc1-c1cnc(C(O)c2ccc(-c3ccccc3)cc2)[nH]1 (stereo unspecified),-55,-77,-16
CC(C)C[C@@H](COCc1ccc(Cl)cc1)N1CCN(C(=O)c2ccc(Cl)cc2Cl)CCC1=O,-10,-12,-0.8
O=C(c1cnccn1)N1CC(=O)N2[C@H](CO)[C@@H](c3ccc(-c4ccc(F)cc4)cc3)[C@@H]2C1,-1,6,-0.4
c1ccc2c(c1)Sc1cnccc1N2CC1CO1 (stereo unspecified),-8,-5,7.9
CC=Cc1ccc2n(c1=O)C[C@H]1[C@H](CO)[C@@H](C(=O)N(C)C)[C@@H]2N1CC1CCCC1 (mixture of isomers),-1,-6,-1.4
CC(C)NC(=O)Nc1ccc2c(c1)C(=O)N(C)[C@H]1CC[C@H](CC(=O)Nc3ccccc3Cl)O[C@@H]1CO2,-10,-5,-4.7
COc1ccc(NC(=O)N(C)C[C@@H]2Oc3ncc(-c4cccnc4)cc3C(=O)N([C@H](C)CO)C[C@H]2C)cc1,3,11,-4.2
COCC(=O)N1CCC2(CC1)CN[C@H](CO)c1c2c2ccc(OC)cc2n1C,4,7,0.4
COc1ccc2c3c([nH]c2c1)[C@@H](CO)N(Cc1ccccc1)CC31CN(CC2CC2)C1,-2,4,3.2
Cc1ccccc1S(=O)(=O)N1CC[C@H]2[C@H](CO)Nc3ccc(-c4cccc(C#N)c4)cc3[C@H]21,-9,-31,19
Cc1ccc(S(=O)(=O)Nc2ccc3c(c2)C(=O)N([C@@H](C)CO)C[C@@H](C)[C@@H](CN(C)Cc2ccc(C(=O)O)cc2)O3)cc1,4,-1,0.5
C[C@@H]1CCCCO[C@@H](CN(C)C(=O)CCCN(C)C)[C@H](C)CN([C@@H](C)CO)C(=O)c2cc(NC(=O)c3ccncc3)ccc2O1,2,2,1.9
CO[C@@H]1CN(C)C(=O)c2ccc(NC(=O)C3CCCCC3)cc2OC[C@H](C)N(C)C[C@H]1C,3,6,-0.8
C[C@@H]1CCCCO[C@H](CN(C)S(=O)(=O)c2ccccc2)[C@H](C)CN([C@H](C)CO)C(=O)c2cc(NC(=O)Nc3cccc4ccccc34)ccc2O1,-1,9,-2.4
CCS(=O)(=O)N1CC2(CN(Cc3ccc(F)cc3)[C@@H](CO)c3c2c2ccc(OC)cc2n3C)C1,-3,-24,1.1

# Results in rRNA inh HTS RFP and rRNA inh HTS OD600, for some of the entries so far:
Compound,rRNA inh HTS RFP,rRNA inh HTS OD600
COCC(=O)N1CCC2(CC1)CN[C@H](CO)c1c2c2ccc(OC)cc2n1C,0.4,7
COc1ccc2c3c([nH]c2c1)[C@@H](CO)N(Cc1ccc(F)cc1)CC31CN(C)C1,-0.7,-5
CC=Cc1ccc2n(c1=O)C[C@H]1[C@H](CO)[C@@H](C(=O)N(C)C)[C@@H]2N1CC1CCCC1 (mixture of isomers),-1.4,-6
C[C@@H]1CCCCO[C@H](CN(C)S(=O)(=O)c2ccccc2)[C@H](C)CN([C@H](C)CO)C(=O)c2cc(NC(=O)Nc3cccc4ccccc34)ccc2O1,-2.4,9
CC(C)NC(=O)Nc1ccc2c(c1)C(=O)N(C)[C@H]1CC[C@H](CC(=O)Nc3ccccc3Cl)O[C@@H]1CO2,-4.7,-5
C[C@@H]1CN([C@H](C)CO)C(=O)c2cccc(NC(=O)c3nc4ccccc4s3)c2O[C@@H]1CN(C)CC1CC1,4.3,-5
C[C@@H]1CCCCO[C@@H](CN(C)C(=O)CCCN(C)C)[C@H](C)CN([C@@H](C)CO)C(=O)c2cc(NC(=O)c3ccncc3)ccc2O1,1.9,2

# 2 successive compounds already listed, quoted:
SMILES,rRNA inh HTS,rRNA inh HTS OD600,rRNA inh HTS RFP
COc1ccc2c3c([nH]c2c1)[C@@H](CO)N(Cc1ccc(F)cc1)CC31CN(C)C1,-2,-5,-0.7
O=C(C1CCC1)N1CC(=O)N2[C@@H](CO)[C@@H](c3ccc(C#CCc4ccccc4)cc3)[C@@H]2C1,4,5,-4.5

# More records.
SMILES,rRNA inh HTS,rRNA inh HTS OD600,rRNA inh HTS RFP
CC(C)NC(=O)N(C)C[C@@H]1OCCCC[C@@H](C)Oc2ccc(NC(=O)CCC(F)(F)F)cc2C(=O)N([C@H](C)CO)C[C@@H]1C,3,9,-4.6
CC(=O)N(C)C[C@@H]1Oc2ccc(NS(C)(=O)=O)cc2CC(=O)N(C)C[C@@H]1C,2,1,0.3
C[C@@H](NC(=O)C[C@H]1C[C@H]2c3cc(NC(=O)c4cccnc4)ccc3O[C@H]2[C@@H](CO)O1)c1ccccc1,0,6,2.4
CO[C@H]1CN(C)C(=O)c2cc(NC(=O)c3ccccc3)ccc2OC[C@H](C)N(C(=O)C2CC2)C[C@H]1C,-1,-3,-0.6
C[C@@H]1CN([C@@H](C)CO)S(=O)(=O)c2ccc(-c3cccnc3)cc2O[C@@H]1CN(C)C(=O)NC1CCCC1,-5,-1,-0.6
Cc1ccsc1C(=O)OCC(=O)NCc1cccs1,9,-3,1.9
C[C@H]1CCCCO[C@H](CN(C)C(=O)c2ccccc2)[C@@H](C)CN([C@@H](C)CO)C(=O)c2cc(NC(=O)Nc3ccc(F)cc3)ccc2O1,-3,-5,2.7
COCCNC(=O)C[C@@H]1CC[C@H]2[C@@H](COc3ccc(NC(=O)Nc4cccc(F)c4)cc3C(=O)N2C)O1,3,5,0.3
O=C(C[C@H]1CC[C@@H]2[C@H](COC[C@@H](O)CN2Cc2cccc(F)c2)O1)NCCc1ccncc1,-4,-2,-4.2
CCCNC(=O)N1C[C@@H](O)COC[C@H]2O[C@@H](CC(=O)N3CCOCC3)CC[C@@H]21,0,0,-4.3
C[C@@H]1CN([C@@H](C)CO)C(=O)c2cc(NC(=O)Nc3ccc(C(F)(F)F)cc3)ccc2O[C@@H](C)CCCCO[C@@H]1CN(C)Cc1ccncc1,6,0,-1.5
COc1ccccc1CNC(=O)C[C@@H]1C[C@@H]2c3cc(NS(C)(=O)=O)ccc3O[C@@H]2[C@@H](CO)O1,2,-2,-7.6
C[C@@H]1CCCCO[C@@H](CN(C)S(=O)(=O)c2ccc(Cl)cc2)[C@H](C)CN([C@@H](C)CO)C(=O)c2cc(NC(=O)Nc3ccc4c(c3)OCO4)ccc2O1,1,0,-3.4
C[C@H]1CN([C@@H](C)CO)C(=O)c2cc(NC(=O)CCCN(C)C)ccc2O[C@@H]1CN(C)Cc1ccc2c(c1)OCO2,1,4,-0.9
O=C(NCC[C@H]1CC[C@@H](NS(=O)(=O)c2cccc(Cl)c2)[C@@H](CO)O1)c1cnccn1,-2,-1,0.5
C[C@@H]1CN([C@@H](C)CO)C(=O)c2cc(NC(=O)C3CCCCC3)ccc2O[C@H]1CN(C)C(=O)Nc1cccc2ccccc12,0,1,0.5
CO[C@@H]1CN(C)C(=O)c2cc(NS(C)(=O)=O)ccc2OC[C@@H](C)N(C(=O)C2CCCC2)C[C@@H]1C,2,16,-1.3
C[C@@H]1CN([C@@H](C)CO)C(=O)c2cc(NC(=O)Nc3ccccc3)ccc2O[C@@H]1CN(C)S(=O)(=O)c1ccccc1,3,-23,-5.6
CC(=O)N1[C@H](CN(CC2CCC2)C(=O)CN(C)C)[C@@H](c2ccccc2)[C@@H]1CO,2,4,-1.0
C[C@H]1CN([C@@H](C)CO)C(=O)c2cccc(NC(=O)CCCCCC(=O)Nc3ccccc3N)c2O[C@@H]1CN(C)C(=O)Nc1ccc2c(c1)OCO2,1,-1,-0.4
OC(c1ccccc1)(c1ccccc1)C1CCN(CCCOc2cc(F)cc(F)c2)CC1,5,-21,24
O=C(C[C@@H]1C=C[C@@H](NC(=O)CN2CCOCC2)[C@H](CO)O1)NCCc1ccncc1,4,6,0.8
CN(C)C(CNC(=O)C1CC(=O)N(c2cccc(C(F)(F)F)c2)C1)c1ccccc1 (stereo unspecified),-2,10,0.2
C[C@@H]1CN([C@@H](C)CO)S(=O)(=O)c2ccc(Br)cc2O[C@H]1CN(C)C(=O)CC1CC1,-7,-7,-3.0
C[C@H](O)C#Cc1cnc2c(c1)C(=O)N([C@H](C)CO)C[C@@H](C)[C@@H](CN(C)C(=O)c1ccccc1)O2,-3,8,-0.7
CCCC(=O)N1CC2(CN(C)C2)c2c(n(C)c3cc(OC)ccc23)[C@H]1CO,6,2,-4.7
C[C@@H]1CN([C@H](C)CO)C(=O)c2cc(NC(=O)c3ccncc3)ccc2O[C@@H]1CN(C)C(=O)Nc1ccc(F)cc1,8,2,1.1
COc1cccc(C(=O)Nc2ccc3c(c2)C(=O)N(C)[C@H]2CC[C@@H](CC(=O)N[C@@H](C)c4ccccc4)O[C@@H]2CO3)c1,1,7,0.7
C[C@@H](NC(=O)C[C@H]1CC[C@H](NC(=O)c2cccnc2)[C@H](CO)O1)c1ccccc1,-2,1,-0.4
COc1cccc(C#Cc2ccc([C@@H]3[C@@H](CO)N4C(=O)CN(C(=O)Cc5cccnc5)C[C@H]34)cc2)c1,2,4,6.4
Cc1ccc(OC(=O)N(C)C[C@H]2OCc3ccccc3-c3ccccc3C(=O)N([C@@H](C)CO)C[C@@H]2C)cc1,-1,0,0.5
CCS(=O)(=O)NC[C@@H]1[C@@H](c2ccccc2)[C@@H](CO)N1CC1CCCCC1,3,0,-2.6
C[C@H](CO)N1C[C@H](C)[C@H](CN(C)C(=O)Nc2ccc(C(F)(F)F)cc2)OCCCC[C@H](C)Oc2ccc(NC(=O)C3CCCCC3)cc2C1=O,2,0,-1.5
CCC(=O)N1C[C@H](O)COC[C@H]2O[C@@H](CC(=O)NCC3CCCCC3)CC[C@@H]21,1,-5,-4.5
C[C@H]1CN([C@@H](C)CO)C(=O)Cc2cc(NC(=O)Cn3cnnn3)ccc2O[C@@H]1CN(C)S(=O)(=O)c1cccs1,-1,3,-3.9
